PINK1 modulator – changes PINK1 expression. PINK1 immunofluorescence, high-content cytometry, 24 h. actives 0.2% (n = 410,000). AID 624263. Potency, µM (series often up to 76.6 µM), without a hit: at the top dose activation (PINK1 increase), most hits filed as activators; active = well fitted activation curve with a large enough effect; inconclusive = small, poorly fitted or top-dose-only effect; inactive = flat fitted curve, though single readings scatter; cell line not stated here;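 note: % of control where 0% means no effect; nearly all actives have a fitted effect of over 65% in size; a mitochondrial uncoupler was the plate control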
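Cells are seeded, rested 12 hours, then given compound at five concentrations or DMSO for 24 hours. After fixation, blocking and antibody staining, PINK1 amount and mitochondrial localization are scored; CCCP serves as control.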
The depositor's hits bear a star; ? = inconclusive. Potency is the fitted concentration of half-maximal effect. The list is partial; the hit share may differ from the screen's.

SMILES | PINK1 modulator
COc1cc(CCNC(=O)c2ccc3c(c2)c(C)c(C)n3Cc2cccc(C)c2)cc(OC)c1OC | 0.0%
COc1ccc(NC(=O)C(=O)NCC(c2cccnc2)N2CCc3ccccc3C2)cc1 (stereo unspecified) | -0.9%
O=C(CN1C(=O)COc2ccc(S(=O)(=O)Nc3ccccc3)cc21)NCc1ccccc1Cl | -0.6%
CCCCn1c(=O)c2oc3ccccc3c2n(Cc2ccc(C)cc2)c1=O | 1.3%
COc1cc(NC(=O)Nc2nnc(N3CCCCC3)s2)cc(OC)c1 | 1.6%
O=C(Nc1ccc(OC(F)(F)F)cc1)c1cc2c(=O)n3ccccc3nc2s1 | 0.9%
CCOC(=O)C(CC)Sc1c(CC)cnc2c1c(=O)n(C)c(=O)n2C (stereo unspecified) | 1.7%
CCOC(=O)c1ccc(NC(=O)CC2C(=O)N(c3cccc(OC)c3)C(=O)N2C2CCCCC2)cc1 (stereo unspecified) | 4.6%
CCc1ccc(C(=O)Nc2ccc3nn(-c4ccc(C)c(Cl)c4)nc3c2)cc1 | -0.8%
COc1ccc(CNC(=O)CN2C(=O)CCn3nc(-c4ccccc4)cc32)c(OC)c1 | 1.0%
Cc1ccc(N(Cc2cccs2)C(=O)c2ccccc2[N+](=O)[O-])cc1 | 1.0%
c1ccc2c(CCc3c[nH]c4ccccc34)ccnc2c1 | 0.9%
O=C(Cc1cccs1)Nc1c(C(=O)Nc2ccc(F)cc2)oc2ccccc12 | 7.7%
O=S(=O)(c1cccc(C(F)(F)F)c1)N1CCN(S(=O)(=O)c2ccc3c(c2)OCCO3)CC1 | 2.6%
Cc1ccc(OC(=O)CSc2nnc(-c3ccc4c(c3)OCO4)o2)cc1 | 0.2%
Cc1ccc(CSc2cn(CC(=O)N3CCCCC3)c3ccccc23)cc1 | 0.7%
CCCCC(=O)OC1=C(C(=O)c2ccccc2)N(CC)S(=O)(=O)c2ccccc21 | 17.2%
CCc1ccc(NC(=O)N2CC(C)Oc3ccc(C)cc32)cc1 (stereo unspecified) | 5.2%
Cc1nnc(N2CCN(c3ccccc3F)CC2)c2c1nnn2Cc1ccc(F)cc1 | 0.6%
CCCSc1nnc(NC(=O)c2cc(=O)c3ccccc3o2)s1 | 5.2%
Cc1ccc(N2CCN(S(=O)(=O)c3ccc(F)c(C(=O)Nc4ccc(Cl)cc4Cl)c3)CC2C)cc1 (stereo unspecified) | -0.7%
CCOc1ccc(CCNC(=O)C2CCC(CNS(=O)(=O)c3ccc(Cl)cc3)CC2)cc1OCC (stereo unspecified) | 2.4%
CCN(C(=O)Cn1c(=O)n(-c2ccccc2)c(=O)c2ccc(C(=O)NCc3ccc4c(c3)OCO4)cc21)c1cccc(C)c1 | -0.1%
CCc1ccc(CNC(=O)CN2C(=O)C3CCCCN3c3ccc(C(=O)N4CCCC4)cc32)cc1 (stereo unspecified) | 0.8%
N#Cc1cccc(NC(=O)c2cc3c(s2)-c2ccc(Cl)cc2SC3)c1 | 23.3%
COc1ccccc1Cc1nc2ccccc2nc1SCC(=O)N1CCC(C)CC1 | -0.5%
CCN(C(=O)c1cn(CC)c(=O)c2cc(OC)c(OC)cc12)c1ccc(C)c(C)c1 | -0.1%
COc1ccc(-c2nn(-c3ccc(F)cc3)c3c2cnc2cc4c(cc23)OCO4)cc1 | 0.7%
COc1ccc(Cl)cc1NC(=O)CSc1cn(CC(=O)N2CCCCCC2)c2ccccc12 | 2.1%
CC(C)Cc1nn2cc(-c3cccc(Br)c3)nc2s1 | 2.9%
COC(=O)CCSc1nc2sc3c(c2c(=O)n1Cc1ccccc1)CCC(C(C)(C)C)C3 (stereo unspecified) | 0.3%
COc1ccccc1OC(C)C(=O)NCC1(N2CCOCC2)CCCCC1 (stereo unspecified) | 1.5%
CN(C)c1ccc(N=Nc2ccc(/C=C/c3ccnc4ccccc34)cc2)cc1 | 16.7%
COCCCNC(=O)c1ccc(Cn2c(=O)c3ccccc3n(CC(=O)Nc3ccc(C)cc3C)c2=O)cc1 | 1.4%
Cc1ccc(-n2ncc(C(=O)NCCc3ccsc3)c2C2CCN(C(=O)OC(C)(C)C)CC2)cc1C | 1.3%
CSc1ccc(-c2nnn(CC(=O)Nc3sc4c(c3C#N)CCC(C(C)(C)C)C4)n2)cc1 (stereo unspecified) | 2.0%
CCC(C)Cn1c(/C=C/c2ccccc2)nc2ccccc21 (stereo unspecified) | ?
Cc1ccc(-c2nc(N3CCN(S(=O)(=O)c4ccc(F)cc4)CC3)c3ccc(Cl)cc3n2)cc1 | -0.9%
Cc1ccc(-c2nc3cc(NC(=O)c4cc(Br)ccc4Cl)ccc3o2)cc1 | 10.8%
CC1CCN(C(=O)c2cnn(-c3ccc(Cl)cc3)c2C2CCN(C(=O)OC(C)(C)C)CC2)CC1 | -1.4%
COc1ccc(OC)c(/C=C/c2ccc3ccccc3n2)c1 | 1.2%
O=C(c1ccc(CSc2nc3ccncc3n2Cc2ccccc2F)cc1)N1CCCCC1 | 0.9%
COc1ccc(NC(=O)CC2C(=O)N(c3cccc(OC)c3)C(=O)N2Cc2cccnc2)cc1 (stereo unspecified) | 1.6%
COc1ccc(N2CCN(C(=O)CCn3c(=O)c4cccn4c4cccnc43)CC2)cc1 | 0.4%
O=C(NCCc1ccc(F)cc1)C(=O)NCC(c1cccs1)S(=O)(=O)c1ccc(Cl)cc1 (stereo unspecified) | 2.0%
CCOC(=O)c1ccc(NC2SC(=O)N(Cc3cccc(C(=O)O)c3)C2=O)cc1 (stereo unspecified) | 0.7%
CN(CC1COCCO1)C(=O)c1cnn(-c2nccc(-c3ccccc3C(F)(F)F)n2)c1C1CC1 (stereo unspecified) | 0.4%
Cn1c(=O)c2sccc2n2c(CCCC(=O)Nc3ccc(F)c(F)c3)nnc12 | 0.7%

Single values from above.
For PINK1 modulator, `CC1CCN(C(=O)c2cnn(-c3ccc(Cl)cc3)c2C2CCN(C(=O)OC(C)(C)C)CC2)CC1` is entered as -1.4%
For PINK1 modulator, `COc1ccc(NC(=O)CC2C(=O)N(c3cccc(OC)c3)C(=O)N2Cc2cccnc2)cc1` (stereo unspecified) is entered as 1.6%
For PINK1 modulator, `Cc1ccc(-c2nc(N3CCN(S(=O)(=O)c4ccc(F)cc4)CC3)c3ccc(Cl)cc3n2)cc1` is entered as -0.9%

The results go on.
SMILES | PINK1 modulator
CCn1nnc2cc(C(=O)Nc3cccc(Cl)c3C)ccc21 | 11.4%
O=C(NC1(C(F)(F)F)N=C(c2ccccc2)N(Cc2ccccc2)C1=O)c1ccc(F)cc1 (stereo unspecified) | 0.3%
CCCN(CCC)C(=O)C1CCCN(S(=O)(=O)c2cc(Br)cc3c2N(C(=O)CC)CC3)C1 (stereo unspecified) | 3.8%
COc1ccc(C(=O)N(Cc2ccc(N(C)C)cc2)CC2CCCO2)cc1 (stereo unspecified) | 0.7%
CC(=O)NC(Cc1ccc(O)cc1)C(=O)NCC(N)C(=O)c1ccccc1 (stereo unspecified) | 0.7%
O=C(OCc1ccccc1F)c1ccc(-c2nnn(Cc3ccccc3)n2)cc1 | -0.6%
CC(C)c1c(C(=O)NCC(C)(C)N2CCOCC2)cnn1-c1nccc(-c2ccccc2F)n1 | 0.1%
CCn1c(C(=O)NCc2ccccc2Cl)cc2sc(Cl)cc21 | 0.6%
COc1ccc(Cn2ccc3nc(C)c(C(=O)NCc4ccc(SC)cc4)cc3c2=O)cc1 | 2.8%
CCOc1ccc(NC(=O)c2ccc3c(c2)nnn3C2CCCC2)cc1 | 1.5%
Cc1ccc(NC(=O)c2ccc(CNS(=O)(=O)c3ccc4c(c3)C(C)(C)C(=O)N4C)cc2)cc1 | 0.7%
COc1cc2[nH]c(=O)n(CCCCCC(=O)N3CCN(c4ccc(Cl)cc4)CC3)c(=O)c2cc1OC | 1.8%

Part of the list above in order of formula weight, rising.
SMILES | PINK1 modulator
CCn1nnc2cc(C(=O)Nc3cccc(Cl)c3C)ccc21 | 11.4%
CCOc1ccc(NC(=O)c2ccc3c(c2)nnn3C2CCCC2)cc1 | 1.5%
CCn1c(C(=O)NCc2ccccc2Cl)cc2sc(Cl)cc21 | 0.6%
COc1cc2[nH]c(=O)n(CCCCCC(=O)N3CCN(c4ccc(Cl)cc4)CC3)c(=O)c2cc1OC | 1.8%

(more compounds)
SMILES | PINK1 modulator
Cc1ccc(NC(=O)Cn2c(-c3cncs3)nc3ccccc32)c(Br)c1 | 0.0%
CCc1ccc2oc(C(=O)Nc3cccc(C(F)(F)F)c3)cc(=O)c2c1 | 1.6%
Cc1ccccc1C(=O)N(Cc1nc(-c2ccc(Cl)cc2)no1)C(C)C | 0.6%
COC(=O)c1sccc1S(=O)(=O)N1CCC(n2c(CC3CCCC3)nc3cccnc32)CC1 | 2.1%
NC(=O)C1(N2CCCCC2)CCN(C(=O)Nc2ccc(C(F)(F)F)cc2)CC1 | 0.1%
CCc1ccccc1NC(=O)Nc1cc(C(=O)NCc2ccc(C(C)C)cc2)ccc1N1CCCC1 | 1.2%
CCc1cccc(C)c1NC(=O)c1cc(S(=O)(=O)N2CCCCCC2)cn1C | 1.9%
Cc1cc(C(F)F)n2nc(C(=O)Nc3cccc(Cl)c3C)nc2n1 | 0.0%
CCc1ccc(NC(=O)CSc2cn(CC(=O)N3CCOCC3)c3ccccc23)cc1 | -0.3%
COc1cc(NC(=O)c2cc(C3CC3)nc3c2c(C)nn3-c2ccc(C)cc2)cc(OC)c1 | 2.1%
COc1ccccc1CNC(=O)c1cc2c(=O)n(Cc3cccs3)ccc2nc1C | 2.4%
Cc1cccc(NC(=O)C2CCCN(S(=O)(=O)c3c(C)noc3/C=C/N(C)C)C2)c1C (stereo unspecified) | 5.0%
Cc1nc(N2CCOCC2)c2c(C(=O)NCc3ccc(Cl)cc3)c(C)oc2n1 | -4.1%
O=c1c(N2CCCCC2)csc2ccc(F)cc12 | -0.4%
CCOC(=O)c1c(-c2ccccc2)csc1NC(=O)c1cc(-c2ccc(Br)cc2)on1 | 2.6%
Cc1nc(-n2nc(C)c(CCC(C)C)c2C)sc1C(=O)Nc1ccc(Cl)cc1 | 2.4%
COc1ccc(-c2nc3cc(C)ccc3cc2CN(C(=O)c2ccco2)C2CC2)cc1OC | -0.4%
CC(=O)c1cccc(NC(=O)CCc2nc3cccnc3n2Cc2cccs2)c1 | 0.7%
Cc1c(Cl)cccc1NC(=O)c1ccc2c(c1)CCCN2S(C)(=O)=O | 6.0%
CCOc1ccc(C(=O)/C=C/c2cn(CC(O)CN3CCCCCC3)c3ccccc23)cc1 (stereo unspecified) | 6.5%
Cc1ccc(C(=O)COC(=O)C(CC(C)C)NC(=O)C2CCC(C)CC2)cc1 (stereo unspecified) | 3.5%
Cc1ccc(-n2c(=O)c3c(cnn3C)n(CC(=O)Nc3cccc(Cl)c3)c2=O)cc1 | 1.0%
CCOc1ccccc1CNC(=O)C1CCN(S(=O)(=O)c2c(C)noc2/C=C/c2ccccc2F)CC1 | -1.1%
Cc1cc2c(cc1S(=O)(=O)N1CCC(C)CC1)OCC(=O)N2 | -1.7%
Cc1cccc(-n2c(SCC(=O)Nc3ccccc3Cl)nc3n[nH]c(C)c3c2=N)c1 | -1.2%
Cc1cccc(N2CCN(C(=O)c3ccc(NC(=O)c4nsc5ccccc45)cc3)CC2)c1C | 1.4%
CCOC(=O)c1ccc(-n2c(-c3ccc(C)cc3)c(C)n3c4c(=O)n(C)c(=O)n(C)c4nc23)cc1 | -0.6%
CCn1cc(C(=O)NCc2ccc(C)cc2)c(=O)c2cc(S(=O)(=O)N(C)C3CCCCC3)ccc21 | 2.6%
Cc1sc2c(c1C)c(=O)n(Cc1ccccc1)c(=O)n2CC(=O)Nc1cccc(Cl)c1 | 1.4%
COc1ccc(CCn2c(=O)c3cccnc3n(CC(=O)Nc3ccc(C)c(F)c3)c2=O)cc1OC | 2.3%
COc1ccc(-c2nc(CNS(=O)(=O)c3ccc(Br)cc3)cs2)cc1 | 0.6%
COc1cccc(CNC(=O)CCc2nnc3n(C)c(=O)c4sccc4n23)c1 | 0.0%
CCn1cc(S(=O)(=O)c2ccc(OC)cc2)c(=O)c2cc(F)c(N3CCCCCC3)cc21 | -0.3%
CCCCNc1ncnc2oc(-c3ccco3)c(-c3ccco3)c12 | 2.2%
CN(C)c1ccc(CNc2nc(-c3ccco3)nn2S(=O)(=O)c2ccc3ccccc3c2)cc1 | 0.4%
CCCSc1nc2c(c(=O)[nH]1)C(c1ccc(O)c(OCC)c1)CC(=O)N2 (stereo unspecified) | 0.3%

Continued; the last seven above are carried over.
SMILES | PINK1 modulator
COc1ccc(CCn2c(=O)c3cccnc3n(CC(=O)Nc3ccc(C)c(F)c3)c2=O)cc1OC | 2.3%
COc1ccc(-c2nc(CNS(=O)(=O)c3ccc(Br)cc3)cs2)cc1 | 0.6%
COc1cccc(CNC(=O)CCc2nnc3n(C)c(=O)c4sccc4n23)c1 | 0.0%
CCn1cc(S(=O)(=O)c2ccc(OC)cc2)c(=O)c2cc(F)c(N3CCCCCC3)cc21 | -0.3%
CCCCNc1ncnc2oc(-c3ccco3)c(-c3ccco3)c12 | 2.2%
CN(C)c1ccc(CNc2nc(-c3ccco3)nn2S(=O)(=O)c2ccc3ccccc3c2)cc1 | 0.4%
CCCSc1nc2c(c(=O)[nH]1)C(c1ccc(O)c(OCC)c1)CC(=O)N2 (stereo unspecified) | 0.3%
Cn1c(=O)c2c(-c3cccc(Br)c3)n(CCO)cc2n(C)c1=O | 4.4%
Cc1ccc(S(=O)(=O)N2CCCc3cc(NC(=O)c4ccc(Cl)cc4)ccc32)cc1 | 0.0%
CN(C)S(=O)(=O)N(CC(=O)NCCSCc1c(F)cccc1Cl)c1ccccc1 | -1.7%
Cc1c2cnccc2c(C)c2c1c1ccccc1n2CCOC(=O)c1ccccc1 | 16.2%
CCOc1ccc(C(=O)Nc2ccc(-c3nc4ccccc4s3)c(C)c2)cc1OCC | 0.5%
COc1ccccc1CNC(=O)C1CCN(c2nc3ccc(C)cc3[nH]2)CC1 | -1.6%
Cc1nn2c(-c3cccc(NC(=O)c4ccccc4)c3)nnc2c2ccccc12 | 0.7%
O=C(Nc1ccccc1F)c1ccc(-c2ccccc2)s1 | 4.5%

Assay outcomes from PubChem.
